Bioassay records as filed in PubChem.
RecA intein inh = Mtb RecA intein splicing inhibitors, primary screen, biochemical, fluorescence, HTS. Protein RecA (Mycobacterium tuberculosis (strain ATCC 25618 / H37Rv)), P9WHJ3. cell-free RecA intein splicing. inhibition, %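 (about 9 µM by stock and volumes)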. hit rate 0.75% among 290,000. AID 2221, 2009; in the data active = inhibition above about 30%; inconclusive = no clear call, values can overlap the other calls;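 also: 0% = vehicle wells and 100% = reference inhibitor control wells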
Target sequence (P9WHJ3 whole entry, looked up): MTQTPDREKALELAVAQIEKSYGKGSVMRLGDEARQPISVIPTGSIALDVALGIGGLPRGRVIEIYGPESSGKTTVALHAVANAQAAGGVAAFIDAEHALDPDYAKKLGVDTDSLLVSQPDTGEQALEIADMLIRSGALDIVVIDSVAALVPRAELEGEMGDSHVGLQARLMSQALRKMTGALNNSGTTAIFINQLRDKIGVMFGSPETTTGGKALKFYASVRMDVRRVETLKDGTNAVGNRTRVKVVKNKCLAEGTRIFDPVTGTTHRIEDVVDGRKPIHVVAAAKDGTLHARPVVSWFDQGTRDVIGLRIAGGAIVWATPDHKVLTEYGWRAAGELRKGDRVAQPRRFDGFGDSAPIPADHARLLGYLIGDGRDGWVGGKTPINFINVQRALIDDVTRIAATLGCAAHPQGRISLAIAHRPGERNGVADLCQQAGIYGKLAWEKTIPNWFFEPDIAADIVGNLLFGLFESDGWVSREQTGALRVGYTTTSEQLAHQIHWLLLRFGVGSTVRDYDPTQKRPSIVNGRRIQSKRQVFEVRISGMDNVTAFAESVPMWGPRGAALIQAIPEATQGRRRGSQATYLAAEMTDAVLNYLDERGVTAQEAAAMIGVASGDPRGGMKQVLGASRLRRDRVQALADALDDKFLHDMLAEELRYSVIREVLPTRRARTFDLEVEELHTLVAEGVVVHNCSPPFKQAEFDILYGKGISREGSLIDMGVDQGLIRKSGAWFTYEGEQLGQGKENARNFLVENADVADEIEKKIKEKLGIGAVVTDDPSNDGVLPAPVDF
Mtb bLac sens = beta-lactam sensitization of Mtb H37Rv, H37Rv; hit rate 0.27% among 330,000; inhibition, % at 25 µM; M. tuberculosis H37Rv growth with meropenem, percent inhibition; hits of this screen are not shown here;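 active = about 74% or more and at least 40 points above the plate without the antibiotic, then above 30% in a dose series; inconclusive = first-round hits that could not be retested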;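 also: growth measured after seven days incubation then overnight dye step; 0% = bacteria only wells and 100% = bacteria with antibiotic; twin plates without the antibiotic show which effects depend on it; some results filed as inactive read as strong as hits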
Arbovirus inh = antivirals against arbovirus infection, primary screen, cell-based, full library, 10K replicate subset. inhibition, % at 10 µM. hit rate 0.37% among 200,000. arbovirus infection cell-based antiviral screen. AID 1251, 2008;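 active = inhibition from about 30%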;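 also: bluetongue infection of BSR cells; cell survival read as ATP light after 72 h; 0% = infected wells without compound and 100% = uninfected wells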
Mtb growth = M. tuberculosis H37Rv growth inhibitors, H37Rv strain (AID 1626); M. tuberculosis H37Rv growth inhibition; higher % means a stronger effect; inhibition, % at 10 µM; hits with a dose series show IC50 in µM; hit rate 0.95% among 220,000;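 active = confirmed in a dose series; inconclusive = inhibition above 80% but not taken into the dose series; inactive = below 80% or under 30% at every dose of the series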;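 also: bacteria incubated seven days before Alamar blue readout; 0% = bacteria only wells and 100% = bacteria with antibiotic wells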
YopH inh = YopH tyrosine phosphatase inhibitors, primary screen, biochemical, fluorescence Ex485/Em525. inhibition, %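 (about 10 µM by stock and volumes)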. hit rate 0.16% among 140,000. YopH tyrosine phosphatase [Yersinia enterocolitica];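 active = inhibition of 50% or more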;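 also: controls were vehicle for no effect and minimum signal wells for full effect; inactives centre near -20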
Arbovirus inh repeat = second read-out of Arbovirus inh, no call of its own (marks repeat the call); inhibition, %; measured here: 10K subset replicate screen; many hits read low in the repeat;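 first of two repeat runs on a subset; 0% = infected and 100% = uninfected wells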
Active calls of the source: *; ? = inconclusive; / = not tested or not shown. Some of the compounds tested; rates above refer to the full screens.

Start of the listing, in advance (5 entries):
SMILES	RecA intein inh	Mtb bLac sens	Arbovirus inh	Mtb growth	YopH inh	others
Cc1ccc(N2C(=O)CC(n3nc(C)cc3C)C2=O)cc1 (stereo unspecified)	-0.4	-3	-1	-8%	-15
COc1cccc(CN(C)CC(=O)Nc2ccccc2C(=O)Nc2ccccc2)c1	0.2	-4	-2	-5%	/
CC(C)(C)n1nnnc1C(c1ccccn1)N(Cc1ccccc1)Cc1ccc(Cl)cc1 (stereo unspecified)	11	7	-28	12%	8
CCOc1ccccc1NC(=S)N1CCC(NC(=O)c2ccco2)CC1	-3.9	1	1	-4%	/
COc1cc(NS(=O)(=O)c2ccc(C)cc2C)cc(OC)c1OC	-0.5	-5	-3	0%	-28

All compounds of this part, from the first entry:
SMILES	RecA intein inh	Mtb bLac sens	Arbovirus inh	Mtb growth	YopH inh	others
Cc1ccc(N2C(=O)CC(n3nc(C)cc3C)C2=O)cc1 (stereo unspecified)	-0.4	-3	-1	-8%	-15
COc1cccc(CN(C)CC(=O)Nc2ccccc2C(=O)Nc2ccccc2)c1	0.2	-4	-2	-5%	/
CC(C)(C)n1nnnc1C(c1ccccn1)N(Cc1ccccc1)Cc1ccc(Cl)cc1 (stereo unspecified)	11	7	-28	12%	8
CCOc1ccccc1NC(=S)N1CCC(NC(=O)c2ccco2)CC1	-3.9	1	1	-4%	/
COc1cc(NS(=O)(=O)c2ccc(C)cc2C)cc(OC)c1OC	-0.5	-5	-3	0%	-28
CN1C(=O)NC(=O)C2(Cc3ccccc3N3CCOCC32)C1=O (stereo unspecified)	-0.6	-7	3	0%	-32
O=c1c2ccccc2[nH]c(=S)n1CCN1CCCC1	-0.4	-4	0	4%	/
CCn1c(=O)c2c(nc3n2CCN3c2ccccc2)n(C)c1=O	0.0	-4	3	-2%	/
CS(=O)(=O)N1CCN(c2nc3ccccc3s2)CC1	0.1	4	4	-2%	-22
O=C(O)c1ccc(N2C(=O)CSC2c2cccc([N+](=O)[O-])c2)cc1 (stereo unspecified)	4.1	0	1	0%	/
Cc1ccc(S(=O)(=O)NCC(C)NS(=O)(=O)c2ccc(C)cc2)cc1 (stereo unspecified)	-3.7	0	2	-3%	-20
Cc1ccc(C)c(C(=O)CSc2nnnn2C(C)C)c1	0.3	83	-3	-2%	-1
CC(C)OC(=O)CC1C(=O)NCCN1C(=S)NC(=O)c1cccs1 (stereo unspecified)	-2.2	3	1	9%	/
O=C(Nc1ccc(C(=O)O)cc1)/C(=C/c1ccc2c(c1)OCO2)NC(=O)c1cccc(Br)c1	1.2	-1	17	16%	/
O=C(Cc1ccc(Cl)cc1)N1CCc2ccccc2C1	5.7	6	/	/	/
COc1cccc(C2=NOC(C(=O)N3CCN(C(=O)c4ccco4)CC3)C2)c1 (stereo unspecified)	0.3	-2	-1	10%	-23	Arbovirus inh repeat=-2
COc1ccc(/C=N/NC(=O)c2cc3c(ccc4ccccc43)o2)cc1OC	-4.9	-2	/	/	/
Cc1ccc(NC(=O)COC(=O)C2=COCCO2)cc1	1.9	97	-1	60%	-44
CC(C)c1ccc(NC2CCCN(C(=O)c3cnsn3)C2)cc1 (stereo unspecified)	-3.8	-6	/	/	/
CCCN1CCN(C(=O)Cn2nc(CC)n3c(cc4sccc43)c2=O)CC1	-0.6	0	/	/	/
O=C(CN1CCOCC1)Nc1ccc(NC(=O)CN2CCOCC2)c(Cl)c1	-0.4	6	0	-9%	-38
Cc1cc(C)c2nc(-c3cccnc3)cc(C(=O)Nc3ccc(S(=O)(=O)Nc4onc(C)c4C)cc3)c2c1	12	9	6	2%	/
Cc1ccc(/C(=C\CN2CCCC2)c2ccccn2)cc1	1.5	1	/	8%	/
NS(=O)(=O)c1ccc(NC(=O)c2c(F)cccc2Cl)cc1	-0.7	0	/	-3%	/

The list goes on; it opens with the 2 that closed the last part.
SMILES	RecA intein inh	Mtb bLac sens	Arbovirus inh	Mtb growth	YopH inh	others
Cc1ccc(/C(=C\CN2CCCC2)c2ccccn2)cc1	1.5	1	/	8%	/
NS(=O)(=O)c1ccc(NC(=O)c2c(F)cccc2Cl)cc1	-0.7	0	/	-3%	/
COc1cc(C(=O)Nc2ccc3c(c2)nc(C)n3C)cc(OC)c1OC	-3.4	2	/	/	/
CC(=O)N1CCc2cc(Br)cc(S(=O)(=O)N3CCc4ccccc43)c21	7.0	3	1	8%	/
C(=C\CSc1ncn[nH]1)/CSc1ncn[nH]1	-1.3	-10	10	-9%	-39
Cn1c(CN2CCOCC2)c(C#N)c2ccccc21	1.0	-8	2	-5%	-4
CN(c1ccc(C(=O)NCc2ccc3c(c2)OCO3)cc1)S(C)(=O)=O	2.6	-2	4	-8%	3
Cc1ccc(S(=O)(=O)NNC(=O)c2ccoc2C)cc1	5.8	2	/	3%	/
COc1ccc(/C=N/Nc2ccccn2)c(OC)c1OC	0.2	-9	-10	2%	/
O=C(NC1CC1)c1sc2cc(Cl)ccc2c1Cl	1.4	-2	/	/	/
O=C(CSc1oc(-c2ccccc2)nc1S(=O)(=O)c1ccc(F)cc1)NCC1CCCO1 (stereo unspecified)	-1.4	3	-1	-3%	-6	Arbovirus inh repeat=3
O=C(c1ccc(F)cc1)[C@@H]1[C@@H](C(=O)c2ccccc2)[C@@]2(C(=O)Nc3ccccc32)[C@H]2c3ccccc3C=CN12	29	14	10	56%	83*
CC(C)(C)OC(=O)NC(CC(=O)OCc1ccccc1)C(=O)O (stereo unspecified)	-2.5	-3	/	-5%	/
O=C(O)CC(CN1C(=O)c2ccccc2C1=O)c1ccccc1 (stereo unspecified)	-1.5	0	/	/	/
CCOC(=O)C1=C(CN2CCN(C(=O)OCC)CC2)NC(=O)NC1c1ccc2c(c1)OCO2 (stereo unspecified)	1.5	1	0	2%	/
O=C(NNC1=NS(=O)(=O)c2ccccc21)c1ccc([N+](=O)[O-])cc1	-3.0	-7	/	/	/
C(=N\n1cnnc1SCc1ccccc1)/c1ccco1	-4.0	23	-2	-5%	-8
CN(/C=C/C(=O)C(F)(F)C(F)(F)F)Cc1ccccc1	7.1	-3	-3	-11%	-7
Cc1nn(C)cc1CN(C)Cc1ccc(OCC(O)CN2CCCCC2)cc1 (stereo unspecified)	-5.0	-10	34*	-1%	/
COC(=O)C1=C(CCc2ccccc2)NC(=O)NC1c1ccc(C#N)cc1 (stereo unspecified)	0.8	-1	/	-4%	/
Cc1ccc(SCC(=O)NN2C(=O)c3ccccc3C2=O)cc1	3.4	-4	2	3%	/
O=C(CSc1ccc2c(c1)OCCO2)Nc1ccc(Br)cn1	-4.2	100	/	/	/
CCOC(=O)c1cc2occc2n1Cc1c(F)cccc1Cl	7.3	-3	-2	2%	-24
Cc1ccc(Cn2cccc(-c3nc4ccccc4s3)c2=O)cc1	-12	-15	1	-14%	-13
Cc1cc2c3c([nH]c2cc1S(=O)(=O)NCCCOC(C)C)CC(C)(C)CC3=O	-0.7	4	/	/	/
COC(=O)CSC1=NN1c1cc(C)nc(N)n1	-1.0	-2	5	-7%	/
O=C(CSC1=NCCS1)N1CCc2ccccc21	9.6	11	0	4%	3
O=C(O)c1cccc(NC2=C(Cl)C(=O)c3ccccc3C2=O)c1	/	/	-39	3%	/
O=C(CC1Nc2ccccc2NC1=O)NCc1cccnc1 (stereo unspecified)	-4.5	-12	4	/	-24
COc1cc2[nH]c(=S)nc(NCC3CCCO3)c2cc1OC (stereo unspecified)	-1.3	-2	6	3%	-43
CCOC(=O)c1sc(NC(=O)CSc2n[nH]c(-c3ccc(Cl)cc3Cl)n2)c(C#N)c1C	5.8	3	3	-12%	-6
Cc1ccc(S(=O)(=O)N2CC=C(c3ccc(F)cc3)CC2)cc1	3.0	1	10	15%	-16
Cc1ccc(/C=C/C(=O)NCc2ccccn2)o1	2.6	3	6	10%	-13
CSc1nnc(-c2ccccc2Cl)n1N	0.2	1	7	5%	-39
O=C(Cc1ccc(Br)cc1)NCCc1ccccc1	4.9	-5	/	/	/
CCS(=O)(=O)N1CCCC(C(=O)NCCN2CCC(Cc3ccccc3)CC2)C1 (stereo unspecified)	2.9	-7	-1	/	-46
CCOC(=O)CSc1nnc(-c2ccco2)n1-c1ccc(C)cc1	-3.9	0	5	-7%	-27
CC1Sc2ccc(S(=O)(=O)CCC(=O)NCc3ccc(Cl)cc3)cc2NC1=O (stereo unspecified)	0.5	4	/	/	/
Nc1nnc(SCC(=O)NCc2ccc3c(c2)OCO3)s1	0.1	0	2	6%	-29
CN(C)C(CNC(=O)c1cc(S(=O)(=O)N(C)Cc2ccccc2)ccc1Cl)c1ccco1 (stereo unspecified)	-4.1	-5	/	/	/
COc1ccc(/C=C/c2nc(S(=O)(=O)c3ccccc3)c(N(C)C)o2)cc1OC	2.4	0	/	/	/
CCNC(=O)Nc1ccc(OC)cc1OC	-0.5	0	2	2%	/
O=C(O)CN1C(=O)/C(=C2\SC(=S)N(C(Cc3ccccc3)C(=O)O)C2=O)c2ccccc21 (stereo unspecified)	-0.5	-2	/	/	/
OC(CN1CCN(c2ccccc2)CC1)c1c[nH]c2ccccc12 (stereo unspecified)	-0.5	-11	7	0%	9
COC(=O)c1cn(C(=O)c2cc(C)cc(C)c2)c2ccccc12	-2.7	1	-6	3%	/
CCOC(=O)/C=C/C(=O)Nc1ccccc1C(=O)NC1CCCCC1	-0.8	-2	-3	6%	-13
Oc1ccc(N=Nc2ccc3ccccc3c2)cc1	12	25	/	/	/
CC1CC(C)CN(S(=O)(=O)c2cccc(C(=O)N3C(=O)c4cccc(N)c4C3=O)c2)C1 (stereo unspecified)	-161	-8	-1	2%	-18
Cc1cc(Br)ccc1NC(=S)Nc1cccc([N+](=O)[O-])c1	6.2	10	-7	5%	-19
Cc1c(N)cccc1-c1nc2ccccc2[nH]1	-0.5	-10	-4	-5%	-36

Arranged by count of non-hydrogen atoms (highest first): part of the list above.
SMILES	RecA intein inh	Mtb bLac sens	Arbovirus inh	Mtb growth	YopH inh	others
CCOC(=O)/C=C/C(=O)Nc1ccccc1C(=O)NC1CCCCC1	-0.8	-2	-3	6%	-13
COC(=O)c1cn(C(=O)c2cc(C)cc(C)c2)c2ccccc12	-2.7	1	-6	3%	/
Cc1c(N)cccc1-c1nc2ccccc2[nH]1	-0.5	-10	-4	-5%	-36
CCNC(=O)Nc1ccc(OC)cc1OC	-0.5	0	2	2%	/

(list continues)
SMILES	RecA intein inh	Mtb bLac sens	Arbovirus inh	Mtb growth	YopH inh	others
CCOc1ccc(NS(=O)(=O)c2ccc(C(=O)NCC(c3ccco3)N(C)C)cc2)cc1 (stereo unspecified)	2.5	-7	/	/	/
CC(NC(=O)c1csc2ccccc12)C1CCCO1 (stereo unspecified)	-0.4	2	6	1%	-27
CCC/C=C(\CCC)C(NC(=O)Cc1ccccc1)c1ccc(C(=O)OC)cc1 (stereo unspecified)	3.5	2	-20	-6%	-19
FC(F)(F)c1cccc(NC(=S)N2CCCC2)c1	-3.5	0	/	/	/
O=C(Cc1cccs1)NCCSc1c(-c2ccc(Cl)cc2)[nH]c2ccccc12	18	8	-21	/	-30
Cc1ccc(C)c(Cn2c(CN(C)Cc3ccccc3)nc3c2c(=O)n(C)c(=O)n3C)c1	11	8	-1	4%	-32	Arbovirus inh repeat=-12
O=C(CSc1ccccc1C(=O)O)NC1CCCCCC1	0.0	-3	/	-4%	/
CN(CC1CCCN(CCc2ccc(F)cc2)C1)C(=O)CCC(F)(F)F (stereo unspecified)	0.0	-8	/	/	/
Cc1ccc(S(=O)(=O)N2CCN(C(=O)CSc3nnc(-c4ccco4)o3)CC2)cc1	0.6	?	4	-6%	1
Cc1ccc(SCCNC(=S)Nc2ccc(C)cc2C)cc1	9.1	-1	-42	12%	-31
O=S(=O)(c1ccc2oc3ccccc3c2c1)N1CCCC1	-1.0	0	-5	-8%	1
C=CCSc1nc2ccsc2c(=O)n1-c1ccccc1	0.2	2	1	2%	/
COc1ccc(CC(CC(=O)O)C(=O)Nc2ccccc2)cc1 (stereo unspecified)	0.4	0	8	-8%	-40
CCCCc1nc(SCCOC)c2c(=O)n(C)c(=O)n(C)c2n1	10	2	-6	5%	/
CCNc1nc(NC(C)(C)C)nc(N(C#N)CC)n1	1.5	9	1	2%	-46
CCn1cc(C(=O)O)c(=O)c2cc(F)c(N3CCN(C(=S)NC(=O)c4ccccc4Br)CC3)cc21	-3.3	26	/	/	/
CC(Oc1ccc(-c2ccccc2)c(F)c1)c1ccn(S(=O)(=O)c2ccc(F)cc2)n1 (stereo unspecified)	5.7	?	4	0%	-18
CC1CCCC(NC(=O)CCNC(=O)c2ccc([N+](=O)[O-])cc2)C1C (stereo unspecified)	-1.4	-8	/	/	/
